Screening data as filed in PubChem.
FGF22 binding: binders of human FGF22 protein, primary screen, FGF22 synaptogenesis inhibitor project, biophysical, thermal shift, single point; Fibroblast growth factor 22 (Homo sapiens), Q9HCT0; calls only at 9.99 µM; 1.5% of 340,000 active; recombinant FGF22 thermal shift, SYPRO orange fluorescence; percent of sucrose octasulfate shift, DMSO zero;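 active = melting point raised past a set limit in the mean and every replicate; three in four hits are not shown here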
Target sequence (Q9HCT0 whole entry, looked up): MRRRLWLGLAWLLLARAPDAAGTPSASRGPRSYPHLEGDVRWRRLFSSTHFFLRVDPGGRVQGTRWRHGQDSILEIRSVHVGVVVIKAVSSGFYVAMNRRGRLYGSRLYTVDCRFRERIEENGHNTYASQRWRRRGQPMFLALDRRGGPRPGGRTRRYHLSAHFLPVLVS
E coli growth: E. coli growth inhibition, primary screen, OD600; Escherichia coli growth, 23 h; active compounds read low; 0.21% of 330,000 active; OD600 absorbance (concentration not given with the values);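 active = OD600 absorbance below the run mean of sample wells minus 3.6 SD, in any replicate, cut at about 0.56 in these data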;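 note: stock transfer was 300 nL into about 60 µL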
B2AR ag: beta2AR agonists driving receptor internalization, primary screen, cell-based, FAP fluorogen, flow cytometry; Am2.2-beta2AR cells; reference of the scale not given here; Beta-2 adrenergic receptor (Homo sapiens), P07550; response, % (concentration not given with the values); 0.43% of 340,000 active;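 active = response above a set limit, near 3 SD of response in nonfluorescent compounds, cut at about 42% in these data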;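 note: stock transfer was 100 nL into about 11 µL; a reference agonist was the positive control; negative values mostly stem from fluorescent compounds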
Target sequence (P07550 whole entry, looked up): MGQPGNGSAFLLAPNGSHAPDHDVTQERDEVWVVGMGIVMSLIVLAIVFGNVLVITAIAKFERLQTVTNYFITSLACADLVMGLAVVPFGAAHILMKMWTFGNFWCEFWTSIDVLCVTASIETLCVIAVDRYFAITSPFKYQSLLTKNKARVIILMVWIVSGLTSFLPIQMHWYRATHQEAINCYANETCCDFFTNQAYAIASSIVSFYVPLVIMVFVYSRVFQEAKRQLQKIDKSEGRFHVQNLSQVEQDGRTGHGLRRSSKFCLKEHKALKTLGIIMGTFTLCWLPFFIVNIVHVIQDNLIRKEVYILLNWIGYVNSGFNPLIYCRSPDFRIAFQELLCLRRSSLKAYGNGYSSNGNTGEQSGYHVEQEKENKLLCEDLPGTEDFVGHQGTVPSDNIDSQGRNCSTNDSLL
UCH37 inh: inhibitors of human UCH37 deubiquitinase, primary screen, biochemical, Ub-AMC cleavage, fluorescence; Ubiquitin carboxyl-terminal hydrolase isozyme L5 (Homo sapiens), Q9Y5K5; purified proteasome/UCH37; inhibition, % (no concentration beside the values); 0.33% of 330,000 active; AID 588478, 2011;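 active = mean of two replicates above 20%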;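 note: 0% = compound-free wells with enzyme and 100% = wells lacking proteasome; stock transfer was 100 nL into about 20 µL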
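Material: Human UCH37 enzyme supplied as purified proteasome complex | Schedule: 30 min compound-proteasome preincubation then 25 min substrate reaction, room temperature | Detection: AMC fluorescence from Ub-AMC cleavage, excitation 355 nm, emission 460 nm | Benchmarks: Wells without proteasome as full block, compound-free enzyme plus substrate as uninhibited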
ALR inh: inhibitors of human ALR sulfhydryl oxidase, primary screen, biochemical, H2O2 detection, HRP-luminol luminescence, single point; purified ALR, DTT oxidation; inhibition, % (no concentration beside the values); FAD-linked sulfhydryl oxidase ALR (Homo sapiens), P55789; 3.8% of 290,000 active;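 active = mean and each replicate at 75% or more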;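 note: stock transfer was 7.5 nL into about 7.5 µL; 0% = neutral wells and 100% = wells with inactivated enzyme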
HNF4A DNA FP: change in binding of human HNF4A to DNA, primary screen, biochemical, fluorescence polarization, FITC-DNA. 1 h. activity change, % at 10 µM. 0.3% of 360,000 active. Hepatocyte nuclear factor 4-alpha (Homo sapiens), P41235; in the data active = activity change above about 30%, passing the limit was not always enough;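 note: controls were the assay level and a saturating level of protein; the project sought stronger binding though the title names inhibitors; some compounds called inactive have numbers as strong as hits; positive values seem to mean higher polarization but the record does not say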
Target sequence (P41235 whole entry, looked up): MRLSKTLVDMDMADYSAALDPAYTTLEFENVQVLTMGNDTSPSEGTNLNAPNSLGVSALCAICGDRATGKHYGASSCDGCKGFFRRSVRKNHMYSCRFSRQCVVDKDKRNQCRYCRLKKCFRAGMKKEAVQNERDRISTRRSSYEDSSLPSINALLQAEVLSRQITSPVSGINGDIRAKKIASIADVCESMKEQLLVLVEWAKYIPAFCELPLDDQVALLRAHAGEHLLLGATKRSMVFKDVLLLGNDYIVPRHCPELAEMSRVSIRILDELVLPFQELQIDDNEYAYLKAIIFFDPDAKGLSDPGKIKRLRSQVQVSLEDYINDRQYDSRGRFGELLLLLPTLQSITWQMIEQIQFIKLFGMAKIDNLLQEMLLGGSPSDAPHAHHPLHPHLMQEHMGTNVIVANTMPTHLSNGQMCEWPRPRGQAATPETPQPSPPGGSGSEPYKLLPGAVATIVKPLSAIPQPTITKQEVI
rRNA inh HTS: reduced GFP signal of wild-type E. coli, primary screen, bacterial rRNA inhibitor project, GFP/RFP fluorescence, OD600, single point. E. coli WT GFP vs humanized-ribosome RFP mutants, 24 h; active compounds read low; DMSO median 0, no signal -100. 1.6% of 350,000 active. GFP signal change (wild-type ribosome), % (no concentration beside the values);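 active = significant combined selectivity score with lowered wild-type GFP, culture density cut under 30%, mutant RFP and density less affected; inactive = any of these conditions unmet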; note: one replicate is shown; some compounds called inactive have numbers as strong as hits
rRNA inh HTS OD600: recorded beside rRNA inh HTS, whose call it bears; OD600 change, %; measured here: OD600 growth;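 optical density of the mix in the first replicate; 0 = DMSO median and -100 = no signal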
rRNA inh HTS RFP: second read-out of rRNA inh HTS, no call of its own (marks repeat the call); RFP signal change, %; measured here: RFP humanized mutant strains;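 first replicate; 0 = DMSO median and -100 = no signal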
* hit, by the source's call; i = inactive; / = no result given; & = joins results of further samples. Only part of the results is shown. The share of hits here may be higher or lower than overall.

structure | FGF22 binding | E coli growth | B2AR ag | UCH37 inh | ALR inh | HNF4A DNA FP | rRNA inh HTS | rRNA inh HTS OD600 | rRNA inh HTS RFP
COc1ccc(CC(=O)Nc2ccc(N3CCN(c4ccc(OC)cc4)CC3)c(C#N)c2)cc1 | / | 0.769 | -2.0 | -17.3 | -2.6 | -0.8 | / | / | /
CSc1ccccc1-n1nnnc1SCC(=O)Nc1cc(C)ccc1C | / | 0.696 | -2.9 | -0.1 | -6.1 | -1.4 | / | / | /
CN1C2CCC1CC(OC(=O)c1c[nH]c3ccccc13)C2 (stereo unspecified) | i | 0.665&0.697&0.71 | 0.5&-1.4 | -0.6&8.6 | -5.9 | 1.9&5.2 | / | / | /
COC(=O)CCS(=O)(=O)c1ccc(Cl)cc1 | / | 0.688 | -5.3 | 4.5 | -13.7 | 0.7 | / | / | /
Cc1ccc(NS(=O)(=O)c2ccc(NC(=O)C3CC3)cc2)cc1C | i | 0.729 | -0.3 | 3.0 | / | -0.6 | -23.6* | -18.9* | 6.5*
Cc1ccc(C(=O)C(SC(C)(C)C)n2cncn2)cc1 (stereo unspecified) | i | 0.674 | -1.4 | -0.2 | -1.2 | -0.3 | 7.3 | 1.5 | 0.4
CCc1cc(C(=O)Cc2nc3ccccc3s2)c(O)cc1OCC(=O)O | i | 0.701 | -1.8 | 3.4 | -3.0 | 2.2 | -2.1 | -4.6 | 2.1
CS(=O)c1ccccc1COC(=O)Nc1ccc(Cl)cc1 (stereo unspecified) | / | 0.671 | -1.9 | 4.1 | -16.8 | -0.3 | / | / | /
NC(=O)C1CCN(C(=O)CCc2ccsc2)CC1 | i | 0.698 | 18.5 | 3.2 | / | 2.4 | 3.1 | 6.3 | -1.7
Cc1ccc(S(=O)(=O)NCCCN2CCOCC2)cc1C | / | 0.735 | 1.3 | -1.6 | -24.8 | 4.4 | / | / | /
O=c1c2ccccc2nc(SCc2nnc(-c3ccccc3Br)o2)n1-c1ccccc1 | i | 0.725 | -4.7 | 3.4 | -3.9 | -1.9 | -2.5 | -17.7 | 1.6
O=C1CN(S(=O)(=O)c2ccc([N+](=O)[O-])cc2)CC(=O)N1 | i | 0.708 | 1.4 | 0.0 | / | -1.7 | 1.6 | 0.9 | 0.6
CN(Cc1cccc(F)c1)C(=O)CN1CCN(S(=O)(=O)c2ccc3c(c2)OCCCO3)CC1 | i | 0.682 | -10.9 | 1.3 | -1.8 | -2.2 | -8.6 | -23.4 | -4.5
O=C(Nc1ccc2c(c1)OCCO2)C(CCc1ccccc1)N1CCN(C/C=C/c2ccccc2)CC1 (stereo unspecified) | i | / | / | / | / | 1.3 | -50.3 | -70.9 | -12.1
Cc1ccc(CN2CCC[C@]3(N[C@H](c4ccccc4)[C@@H]4C(=O)N(Cc5ccccc5)C(=O)[C@@H]43)C2=O)cc1 | i | / | / | / | / | 4.6 | 4.6 | -27.5 | -2.7

Exported with two lines to a compound: entries from further up.
Each structure is followed by: FGF22 binding, E coli growth, B2AR ag, UCH37 inh, ALR inh, HNF4A DNA FP, rRNA inh HTS, rRNA inh HTS OD600, rRNA inh HTS RFP
CCc1cc(C(=O)Cc2nc3ccccc3s2)c(O)cc1OCC(=O)O
    i, 0.701, -1.8, 3.4, -3.0, 2.2, -2.1, -4.6, 2.1
CS(=O)c1ccccc1COC(=O)Nc1ccc(Cl)cc1 (stereo unspecified)
    /, 0.671, -1.9, 4.1, -16.8, -0.3, /, /, /
NC(=O)C1CCN(C(=O)CCc2ccsc2)CC1
    i, 0.698, 18.5, 3.2, /, 2.4, 3.1, 6.3, -1.7
Cc1ccc(S(=O)(=O)NCCCN2CCOCC2)cc1C
    /, 0.735, 1.3, -1.6, -24.8, 4.4, /, /, /
O=c1c2ccccc2nc(SCc2nnc(-c3ccccc3Br)o2)n1-c1ccccc1
    i, 0.725, -4.7, 3.4, -3.9, -1.9, -2.5, -17.7, 1.6

(next part)
structure | FGF22 binding | E coli growth | B2AR ag | UCH37 inh | ALR inh | HNF4A DNA FP | rRNA inh HTS | rRNA inh HTS OD600 | rRNA inh HTS RFP
O=C(Nc1ccc2c(c1)OCCO2)C1CCN(c2cnccn2)CC1 | / | 0.74 | 7.5 | -9.3 | -2.6 | -2.1 | / | / | /
Cc1ccc2cccc(S(=O)(=O)NC3CCS(=O)(=O)C3)c2n1 (stereo unspecified) | i | 0.721 | 5.3 | -0.5 | 0.2 | -1.9 | 11.1 | 7.2 | -0.5
Cc1ccc(N=Nc2c(O)[nH]c(=O)[nH]c2=O)cc1S(=O)(=O)Nc1ccc(Br)cc1 | i | 0.705 | 8.2 | 7.3 | / | -5.8 | -52.6 | -80.8 | -21.9
CSc1ccccc1OC1CCN(Cc2ccccc2)CC1 | / | / | 7.4 | 0.7 | 1.0 | -1.7 | / | / | /
CCc1nc2ccc(C(=O)Nc3ccc(OC)c(OC)c3)cn2c1N(CCC(C)C)CCN(C)C | i | / | / | / | / | 1.9 | -4.0 | -3.4 | -0.3
CCCCOc1ccc(S(=O)(=O)NC(=O)C2(C)CCN2C(=O)CCc2ccccc2)cc1 (stereo unspecified) | i | / | / | / | / | -0.3 | -13.4 | -16.3 | -1.2
CCc1ccc(N2C=C(C(=O)OC)C(c3ccccc3F)C(C#N)=C2N)cc1 (stereo unspecified) | i | / | / | / | / | 6.0 | -23.8 | -36.6 | -7.9
COc1ccccc1-n1c(-c2ccccc2)n[nH]c1=S | i | 0.684 | 0.2 | -0.2 | 29.0 | 2.3 | 9.6 | 10.9 | -0.6
C[C@H]1CN([C@@H](C)CO)C(=O)CCCn2nncc2CO[C@@H]1CN(C)S(=O)(=O)c1ccc(Oc2ccccc2)nc1 | i | / | / | / | / | 1.2 | -2.8&-2.7 | 1.2&-1.9 | -3.8&-0.5
C#CCNC(=O)C1=C[C@H](c2ccc(C(F)(F)F)cc2)C[C@H](OCc2ccc(CO)cc2)O1 | i | / | -2.1 | 3.1 | -11.6 | -4.2 | -2.1 | 5.3 | -8.5
CC(C)C[C@H]1CN=C(N(C)C)N1CC1CCCC1 | i | 0.698 | 5.0 | 1.2 | / | -0.9 | 7.5 | 6.2 | -4.6
O=C(Oc1ccc(-c2ccccc2)cc1)N1CCCCC1 | / | 0.721 | 16.9 | 4.4 | -2.4 | 0.2 | / | / | /
CCOC(=O)C1=C(C(C)=O)C(c2cccnc2)C(C#N)=C(N)O1 (stereo unspecified) | / | 0.659 | -13.2 | 1.0 | -2.7 | -3.5 | / | / | /
O=C(Cc1ccc(Cl)cc1)Nc1ccccn1 | i | 0.678 | -2.5 | 3.3 | -13.0 | 5.2 | 2.0 | 9.7 | -7.9
Cc1cccc(Nc2nc(-c3ccc4c(c3)OCCO4)cs2)c1 | / | 0.704 | 15.3 | 0.9 | -3.2 | 3.8 | / | / | /

structure | FGF22 binding | E coli growth | B2AR ag | UCH37 inh | ALR inh | HNF4A DNA FP | rRNA inh HTS | rRNA inh HTS OD600 | rRNA inh HTS RFP
COc1ccc(-c2cn[nH]c2-c2ccc(OC)cc2O)cc1 | i | 0.645 | -2.4 | 4.7 | 96.9* | -4.0 | 8.0 | -37.0 | 8.8
O=C(C1=C[C@@H](c2coc3ccccc3c2=O)C[C@@H](OCCCCO)O1)N1CCOCC1 | i | / | -15.7 | 1.6 | 0.2 | -6.5 | 14.4 | -2.0 | -1.0
Cc1cc(C)c(NC(=O)c2c[nH]c(=S)n2-c2ccc(F)cc2)c(C)c1 | i | 0.694 | -1.0 | 2.0 | 31.5 | -3.8 | -2.1 | -0.5 | -1.3
Cc1ccc(NC(=O)C2CCN(S(=O)(=O)c3ccc(F)cc3)CC2)cc1 | / | 0.668 | -5.2 | 1.8 | -20.9 | -0.5 | / | / | /
O=C(OCc1cn([C@H]2CN(C(=O)c3cccs3)[C@@H](c3ccccc3)C[C@@H]2O)nn1)c1ccccc1 | i | / | / | / | / | -2.3 | -9.7 | -9.5 | 1.0
Cn1ccnc1C(OC(=O)c1ccccc1)C(F)(F)F (stereo unspecified) | i | 0.684 | -2.3 | 6.6 | -29.6 | -6.3 | 15.4 | 12.8 | 9.9
COc1ccccc1CNC(=S)Nc1ccc2nc(N3CCN(C)CC3)cc(C)c2c1 | i | 0.65 | 10.8 | -3.5 | 0.2 | 0.0 | -14.7 | -17.4 | 1.3
O=CNCCCc1nc2ccccc2n1Cc1ccccc1 | / | 0.678 | -0.9 | 2.7 | 0.4 | 1.2 | / | / | /
CCOc1ccc(N(CC(=O)N2CCN(c3ccccc3F)CC2)S(=O)(=O)c2c(C)noc2C)cc1 | i | 0.684 | 0.6 | 3.7 | -4.1 | 1.2 | -3.6 | -0.8 | -5.0
C=CCNC(=S)N1CCC(C(=O)c2ccc(Cl)cc2)CC1 | i | 0.654 | 7.5 | 3.8 | -7.2 | 3.6 | -2.7 | 3.8 | -1.4
CCN(CC)C(=O)C1=C(C)N(Cc2ccc(C(C)(C)C)cc2)C(=O)C(CC(=O)NCCc2ccccn2)C1 (stereo unspecified) | i | / | / | / | / | 0.6 | -8.7 | -10.3 | 8.4
O=C(CCC1CCCC1)NNC(=O)c1cc2ccccc2cc1O | i | 0.674 | -6.4 | -0.9 | -2.7 | -5.5 | -7.0 | -22.8 | -1.0
O=C(CN1CCOCC1)N/N=C/c1cccc2ccccc12 | i | / | 1.0 | / | -3.4 | 6.0 | 4.5 | 2.6 | 1.5
CCOc1cc(C#N)c(NC(=O)c2ccnn2C)cc1OCC | i | 0.727 | -1.2 | 5.1 | / | 2.5 | 10.3 | 9.6 | 1.1
O=C(CSc1nnc(NC(=O)c2cccc(F)c2)s1)NC1CC1 | i | 0.67 | -2.8 | 3.6 | 6.1 | -1.6 | 7.8 | 6.4 | -2.9

structure | FGF22 binding | E coli growth | B2AR ag | UCH37 inh | ALR inh | HNF4A DNA FP | rRNA inh HTS | rRNA inh HTS OD600 | rRNA inh HTS RFP
CCOC(=O)C1CCN(Cc2cn(C)nc2-c2ccc(Oc3ccccc3)cc2)CC1 | i | 0.654 | -2.2 | 2.7 | / | -8.0 | -7.0 | -13.0 | 6.8
CCOC(=O)C1=c2s/c(=C\c3cccnc3)c(=O)n2C(N)=C(C(=O)OC)C1c1cccnc1 (stereo unspecified) | / | / | 9.6 | / | -2.8 | -0.5 | / | / | /
CCOC(=O)C1=C2N(C)c3ccccc3N2CCC1=O | / | 0.746 | -7.8 | 3.7 | / | 0.6 | / | / | /
COc1ccc(N2C(=O)CCC(C(=O)O)C2c2ccc(OC)c(OC)c2)cc1 (stereo unspecified) | / | 0.67 | 0.0 | 7.2 | -12.0 | 1.2 | / | / | /
CC(NC(=O)Cn1cnc2c1c(=O)n(C)c(=O)n2C)c1ccccc1 (stereo unspecified) | / | 0.742 | 2.1 | 1.4 | -9.7 | 2.2 | / | / | /
Cc1cc(N2CCN(c3ccccc3Cl)CC2)n2cc(-c3ccccc3)nc2n1 | / | 0.733 | -5.4 | -81.4 | -5.9 | -1.2 | / | / | /
Cc1ccc(C(=O)CNc2cccc(Cl)c2)cc1 | / | 0.735 | -1.6 | 0.1 | -3.9 | 0.0 | / | / | /
COc1ccc(C(c2nnnn2Cc2cccs2)N2CCN(c3ccccc3)CC2)cc1OC (stereo unspecified) | / | 0.696 | -1.7 | 2.7 | 8.5 | -1.1 | / | / | /
